Compound activity (PubChem)
PMP22 txn prim – Cell-based coincidence reporter assay to measure PMP22 gene transcription in S16 Pmp22-F2sN cells - Primary screen | S16 Pmp22-F2sN Schwann cells (luciferase reporters placed in the Pmp22 gene), FLuc/NLuc coincidence luminescence, 24 h | Potency, µM (top dose mostly 57.5 µM), for inactives: at the top dose activity change, negative = inhibition, usual class: inhibitors | 43,000 tested, 2% active; active = clear falling dose curves in both reporters; inconclusive = both reporters move, but less clearly or upward; inactive = either reporter flat; the % is the NLuc reporter signal; note: % is set by controls: 0 for no effect and ±100 for the full control effect; some results filed as inactive show a strong effect at the top dose
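S16(c9) Schwann cells with FLuc/NLuc coincidence reporter in the Pmp22 3' UTR; compounds pin-transferred, 24 h at 37C. Dual-luciferase read: FLuc first, then NLuc after Stop&Glo, each 10 min at room temperature.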
HTT prom inh – Primary qHTS for Identification of Small Molecule Inhibitors of Huntingtin Promoter Activity. HEK293 HTT promoter firefly luciferase reporter (activity 0% = vehicle and -100% = no light), 24 h. 48,000 tested, 0.93% active. Potency, µM (titrated, usually from 57.5 µM), for the others: top-dose activity change, negative = inhibition, usual class: inhibitors. AID 1508623, 2021; active = well fitted inhibition curve with a large enough effect; inconclusive = small, poorly fitted or top-dose-only effect; inactive = no such curve, though single readings can be large or run the other way; note: nearly all actives have a fitted effect of over 50% in size
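HEK293 luciferase promoter-reporter cells (2,500/well) plated 24 h, then compounds added at up to 57.5 uM final for 24 h at 37 °C. Firefly luminescence by Dual-Glo, normalized to vehicle (0%) and zero RLU (-100%).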
An asterisk follows results filed as active; ? = inconclusive; . = not tested or not shown; [ ] = remark or other dose. Potency is the fitted concentration of half-maximal effect.

SMILES | PMP22 txn prim | HTT prom inh
CCCCOc1ccc(CNC(=O)c2ccc(NC(=O)N3CCCCc4ccccc43)cc2)cc1 | ? | -12%
Cc1ccc(Cl)cc1N(C)C(=O)c1cn(C2CCCCC2)c(=O)c2c1c1ccccc1n2C | ? | -4%
COc1ccccc1CNC(=O)Cc1csc2nc(-c3ccc(F)cc3)cn12 | 0% | -18%
Oc1c(Cl)cc(Cl)c(Cl)c1Cc1c(O)c(Cl)cc(Cl)c1Cl | . | ?
Cc1ccccc1Cn1c2ccccc2c2cnn(CC(=O)NC3CCC(C)CC3)c(=O)c21 (centres undefined) | 3% | -13%
Cn1c(C(=O)NCc2ccccc2Cl)cc2sc(Cl)cc21 | -53% | ?
COc1ccccc1N1CCN(S(=O)(=O)c2ccc3c(c2)oc(=O)n3C)CC1 | -8% | -10%
CCOc1ccc(C(=O)NCCS(=O)(=O)N2CCN(c3ccccc3F)CC2)cc1OCC | 8% | -18%
Cc1nnc(N2CCC(C(=O)NCCc3ccccc3Cl)CC2)c2nn(-c3ccccc3)c(C)c12 | ? | ?
CCn1c(=O)c2sccc2n2c(CCCC(=O)N3CCN(c4ccc(OC)cc4)CC3)nnc12 | 4% | -22%
CSc1nnc2[nH]c(=O)cc(C)n12 | -1% | -3%
Cc1c(C(=O)NCc2ccccc2Cl)sc2nc(-c3ccc(F)cc3)cn12 | -15% | -23%
CCCCCNC(=O)c1ccc2c(c1)nc(C)n2-c1cccc(C)c1 | ? | 2%
Cc1cc(F)ccc1NC(=O)c1sc2nc(-c3cccs3)ccc2c1N | -27% | -11%
O=C(Cn1cc(SCc2ccc(C(F)(F)F)cc2)c2ccccc21)N1CCCCC1 | -89% | -28%
O=C(CSc1nc2c([nH]c3ccccc32)c(=O)n1-c1ccccc1F)Nc1cccc(Cl)c1 | ? | ?
COc1ccc(NC(=O)CCn2cnnn2)cc1 | 23% | -3%
O=C(Nc1cc(Cl)cc(Cl)c1)c1ccc(F)c(S(=O)(=O)NCc2ccccc2Cl)c1 | ? | ?
Cc1ccc2oc(=O)c3cnn(CC(=O)N4CCN(c5cc(Cl)ccc5C)CC4)c3c2c1 | ? | 10%
Cc1ccc(C)c(NC(=O)CSc2nc(=O)n(Cc3ccccn3)c3c2CCC3)c1 | 2% | -4%
Cc1ccc2c(c1)-c1nc(-c3ccc4c(c3)NC(=O)CO4)cc(-c3ccccc3)c1CO2 | ? | -7%
COc1ccc(NC(=O)Nc2c[nH]c(=O)[nH]c2=O)c(OC)c1 | 7% | 4%
CC[C@]12CCCN3CCc4c(n(c5ccccc45)C(=O)C1)[C@@H]32 | . | -16%
Cc1c(Cl)cccc1NC(=O)c1ncoc1-c1ccco1 | -16% | 25%
CCOc1ccc(OCC)c(NC(=O)c2csc3c2CCCC3)c1 | -24% | 1%
COC(=O)c1ccccc1NC(=O)CSc1nc(-c2ccccc2)cc(C(F)(F)F)n1 | -13% | -26%[11.5 µM]
COc1ccc(S(=O)(=O)N2CCC(Oc3ccc(-n4cnnn4)cc3)CC2)cc1OC | ? | ?
O=C(Nc1cc(-c2nc3ccccc3o2)ccc1Cl)c1sc2c([N+](=O)[O-])cccc2c1Cl | -15% | 4%
O=C(Nc1cccc2cccnc12)c1cccc2c(Br)cccc12 | -3% | 7%
CCc1nn(CC(=O)NCCc2ccc(Cl)cc2)c(=O)c2cc3ccccc3n12 | -1% | 8%
Cc1cccn2c(=O)cc(COc3cccc(NC(=O)COc4ccccc4)c3)nc12 | -20% | 13%
Cc1ccc(S(=O)(=O)c2nc(-c3ccc(F)cc3)oc2SCC(=O)c2ccccc2)cc1 | ? | ?
COc1cccc(NC(=O)CCSc2nc(-c3ccco3)cc(C(F)(F)F)n2)c1 | 47% | -16%
CCOc1ccccc1NC(=O)C1CCN(S(=O)(=O)c2cccs2)CC1 | 5% | 2%
CCc1ccc(NC(=O)Cn2nnc(C(=O)Nc3ccc(F)cc3)c2N)cc1 | -10% | 1%
O=C(Nc1cccc(Br)c1)c1cc(S(=O)(=O)N2CCCCC2)c[nH]1 | 2% | -23%
[O-][n+]1cccc(CO)c1 | . | 9%
Cc1cc(-c2ccc(C)c(S(=O)(=O)Nc3cccc(C#N)c3)c2)on1 | ? | ?
CC1(C)S[C@@H]2[C@H](NC(=O)Cc3ccccc3)C(=O)N2[C@H]1C(=O)O (tested in a mixture with another compound) | . | -3%
CCN(CC)S(=O)(=O)c1cccc(C(=O)Nc2ccccc2C(=O)Nc2ccc(Cl)cc2)c1 | ? | ?
CC(C)c1ccc(NC(=O)c2cc(S(=O)(=O)NCCc3ccccc3)ccc2F)cc1 | ? | ?
CCN(CCCNC(=O)c1cc2cc3cc(C)ccc3nc2s1)c1cccc(C)c1 | -14% | 0%
COc1ccc(C)cc1NC(=O)N(C(C)C)C1CCN(C(C)=O)CC1 | -5% | 6%
CCc1ccccc1N1CC(c2nnc(NC(=O)c3ccco3)s2)CC1=O (centres undefined) | 14% | -13%
Cc1ccc(C)c(NC(=O)c2cc(S(=O)(=O)N3CCCc4ccccc43)ccc2F)c1 | ? | ?
CCc1ccc(OC(C)c2nc(-c3ccc(-n4cccc4)cc3)no2)cc1 (centres undefined) | -7% | -17%
CN(C)CCOC(c1ccccc1)c1ccc(Br)cc1 (centres undefined) | . | -11%
Cc1ccccc1OCC(=O)Nc1c(C(=O)Nc2ccccc2F)oc2ccccc12 | -2% | -19%
COc1cc(NC(=O)Cn2c(C)cc(C)c(C#N)c2=O)cc(OC)c1 | 22% | -5%
CN[C@@H]1[C@@H](O)[C@@H](O[C@@H]2[C@@H](O)[C@H](O[C@H]3O[C@H](CN)[C@@H](O)[C@H](O)[C@@H]3O)[C@@H](N)C[C@@H]2NC(=O)[C@@H](O)CN)OC[C@]1(C)O | . | -1%
O=[N+]([O-])c1cc(-c2nc(-c3ccccc3)no2)ccc1N1CCCCC1 | -14% | ?
O=C(Nc1ccccc1F)c1ccc(Cn2nc(N3CCN(c4ccccc4)CC3)ccc2=O)o1 | ? | ?
COc1cccc(C2=NN(C(C)=O)C(c3cn(-c4ccccc4)nc3-c3cccs3)C2)c1 (centres undefined) | 5% | -18%
COc1ccc(OC)c(CCNC(=O)c2cc3c(=O)oc4ccc(C)cc4c3s2)c1 | 15% | -6%
COc1ccc2oc(-c3ccc(C)c(NC(=O)c4ccc(-c5ccccc5[N+](=O)[O-])o4)c3)nc2c1 | ? | -5%
CCCN(CCC)CCNC(=O)C1CCN(c2nc3ccc(CC)cc3s2)CC1 | ? | 25%
CCc1sc(Nc2cccc(C)c2C)nc1-c1cc2cccc(OC)c2oc1=O | ? | -10%
COc1ccc(NC(=O)c2ccco2)cc1NC(=O)c1cc(OC)c(OC)c(OC)c1 | ? | 3%
COc1ccc(CSc2nc3ccncc3n2Cc2nc(-c3ccc(OC)c(OC)c3)oc2C)cc1 | -62% | 9%
O=C(COc1ccccc1[N+](=O)[O-])Nc1ccc(-c2nc3ccccc3s2)cc1 | -26% | 44%[activator]

Remaining list, next part.
SMILES | PMP22 txn prim | HTT prom inh
COc1ccc(-n2nc(C(=O)Nc3ccccc3OC)c3c4ccccc4n(C)c3c2=O)cc1Cl | -8% | 0%
O=C(O)Cc1ccc(CCNS(=O)(=O)c2ccc(Cl)cc2)cc1 | . | 3%
O=C(c1cccc([N+](=O)[O-])c1)N1CCN(c2ccc(Nc3ccccc3)nn2)CC1 | -12% | -24%
COc1ccc(NC(=O)CCSc2nc(-c3ccco3)cc(C(F)(F)F)n2)cc1 | -13% | -17%
CCCCN(C)C(=O)CSc1c2c(nc3ccc(Cl)cc13)CCCC2 | ? | -9%
Cc1cc(C)cc(Oc2c(C(F)(F)F)oc3cc(OCC(=O)NC4CCCCC4)ccc3c2=O)c1 | -16% | -14%
CN(C)S(=O)(=O)c1ccc(C(=O)Nc2c(C(=O)Nc3ccc(F)cc3)oc3ccccc23)cc1 | -6% | 2%
CCOc1ccc(OCC)c(NC(=O)c2cc(C)nc3c2c(C)nn3-c2cccc(Cl)c2C)c1 | 2% | -9%
COc1ccccc1C(=O)Nc1ccc2nc(SCC(=O)N(C)c3ccccc3)sc2c1 | ? | ?
COc1cc(OC)c(NC(=O)CCc2c(C)nc3ncnn3c2C)cc1Cl | 12% | 2%
Cc1cc(S(=O)(=O)C(CNC(=O)COc2ccc(Cl)cc2)c2cccs2)ccc1F (centres undefined) | -33% | -19%
COc1ccccc1CNC(=O)c1cnn2c(C)c(Cc3ccc(F)cc3)c(C)nc12 | ? | -3%
COc1cccc(NC(=O)Cn2cc(C(=O)c3ccc(C)cc3)c(=O)c3cc(OC)ccc32)c1 | ? | -18%
COCCNC(=O)c1ccccc1NC(=O)c1nsc2ccccc12 | -9% | 13%
O=C(O)c1ccc(Nc2ncnc3scc(-c4ccccc4)c23)cc1 | ? | -16%
Cc1cccc(CCn2c(=O)c3ccccc3n(Cc3ccccc3C)c2=O)c1 | -28% | -3%
COc1ccc(CNC(=O)C2CCN(S(=O)(=O)c3ccc4nc5c(c(C(=O)O)c4c3)CCCC5)CC2)cc1 | -5% | -10%
OCc1nc2ccccc2n1Cc1c(F)cccc1Cl | ? | 0%
COc1ccc(CCNC(=O)NCc2noc3ccccc23)c(OC)c1 | 17% | -15%
O=C(OCC(COC(=O)c1cccnc1)(COC(=O)c1cccnc1)COC(=O)c1cccnc1)c1cccnc1 | . | 10%
CCC(C(=O)N1CCN(c2ccccc2)CC1)n1c(C)c2cnn(-c3ccccc3)c(=O)c2c1C (centres undefined) | -31% | -23%
C=CCc1ccccc1OCCSc1nc(-c2ccccc2F)nc2cc(=O)[nH]n12 | -54% | -1%
COc1ccc(NC(=O)CSc2c3c(nc4ccccc24)CCC3)c(OC)c1 | ? | -2%
CCOc1ccc(Nc2c(S(=O)(=O)c3ccccc3)cnc3ccccc23)cc1 | ? | ?
COc1ccc(-c2nc(CS(=O)CC(=O)NCCc3ccc(Cl)cc3)c(C)o2)cc1OC (centres undefined) | ? | -17%
COc1ccc(NC(=O)c2sc3nc4c(cc3c2N)CCCCCC4)c(OC)c1 | ? | -8%[11.5 µM]
Cc1ccc(CN(Cc2ccco2)C(=O)COc2ccc(Cl)cc2)o1 | -16% | ?
CCCCSCCCNC(=O)C1CCC(CNS(=O)(=O)c2ccccc2)CC1 (centres undefined) | -7% | -29%
O=C1CCCc2cc(S(=O)(=O)N3CCCC(C(=O)Nc4ccc(F)c(Cl)c4)C3)ccc2N1 (centres undefined) | ? | ?
CCCCN(C)CCCNC(=O)c1ccc2nc(N3CCCCC3)sc2c1 | -2% | ?
COc1ccccc1N1CCN(C(CNC(=O)C(=O)NCc2ccc(F)cc2)c2cccnc2)CC1 (centres undefined) | ? | ?
COc1ccccc1N=c1scc(-c2ccc(S(=O)(=O)N3CCCC3)cc2)n1C | ? | 3.2µM*
Cc1cc(C)c(/C=C/c2onc(C)c2S(=O)(=O)N2CCC(C(=O)Nc3cccc(C)c3C)CC2)c(C)c1 | 6% | ?
COc1cc(NC(=O)Cn2nc(C(F)(F)F)c3c2CCCC3)cc(OC)c1OC | ? | 22µM*
Cc1ccc(/C=C(\C#N)C(=O)Nc2cccc(Cl)c2)o1 | -4% | 77%[activator]
Cc1ccc(-c2nc(CS(=O)CC(=O)N3CCN(c4ccc(Cl)cc4)CC3)c(C)o2)cc1 (centres undefined) | ? | ?
CNS(=O)(=O)c1cn(CC(=O)N2CCN(c3cccc(Cl)c3)CC2)cc1S(=O)(=O)NC | -3% | -5%
COc1ccc(-c2c(C)nn3c(-c4ccccc4)cc(C)nc23)cc1OC | -28% | -23%
O=C(Nc1ccc(F)c(Cl)c1)c1ccc2c(Cl)c3c(nc2c1)CCCC3 | 4% | -12%
Cc1ccc2nc(SCc3nc(-c4ccccc4C)no3)[nH]c2c1 | -24% | ?

Structures shown so far containing a thiophene ring, fused or not:
SMILES | PMP22 txn prim | HTT prom inh
Cn1c(C(=O)NCc2ccccc2Cl)cc2sc(Cl)cc21 | -53% | ?
CCn1c(=O)c2sccc2n2c(CCCC(=O)N3CCN(c4ccc(OC)cc4)CC3)nnc12 | 4% | -22%
Cc1cc(F)ccc1NC(=O)c1sc2nc(-c3cccs3)ccc2c1N | -27% | -11%
CCOc1ccc(OCC)c(NC(=O)c2csc3c2CCCC3)c1 | -24% | 1%
O=C(Nc1cc(-c2nc3ccccc3o2)ccc1Cl)c1sc2c([N+](=O)[O-])cccc2c1Cl | -15% | 4%
CCOc1ccccc1NC(=O)C1CCN(S(=O)(=O)c2cccs2)CC1 | 5% | 2%
CCN(CCCNC(=O)c1cc2cc3cc(C)ccc3nc2s1)c1cccc(C)c1 | -14% | 0%
COc1cccc(C2=NN(C(C)=O)C(c3cn(-c4ccccc4)nc3-c3cccs3)C2)c1 (centres undefined) | 5% | -18%
COc1ccc(OC)c(CCNC(=O)c2cc3c(=O)oc4ccc(C)cc4c3s2)c1 | 15% | -6%
Cc1cc(S(=O)(=O)C(CNC(=O)COc2ccc(Cl)cc2)c2cccs2)ccc1F (centres undefined) | -33% | -19%
O=C(O)c1ccc(Nc2ncnc3scc(-c4ccccc4)c23)cc1 | ? | -16%
COc1ccc(NC(=O)c2sc3nc4c(cc3c2N)CCCCCC4)c(OC)c1 | ? | -8%[11.5 µM]
